# Bioassay records deposited in PubChem BioAssay by National Center for Advancing Translational Sciences (NCATS).
# NS1 function inh: qHTS Assay for Inhibitors of Influenza NS1 Protein Function; S. cerevisiae slowed by influenza A NS1, growth recovery by OD600; 0.4% of 270,000 active; AID 2326, 2010; Potency, µM (top dose mostly 46.1 µM), for inactives: at the top dose activity, positive = more growth; active means well fitted rising curve with a large enough effect; inconclusive means small, poorly fitted or top-dose-only effect; inactive means no such curve, though single readings can be large or run the other way; further: nearly all actives have a fitted effect of over 50% in size
#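 Compounds were scored for reversing the slow growth caused by influenza A NS1 in S. cerevisiae, measured by optical density at 600 nm. Assay medium contained 2% galactose at pH 6.0; NS1-free yeast of the same strain were the positive control.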
# Cruzain inh Det: qHTS Assay for Promiscuous and Specific Inhibitors of Cruzain (with detergent). Cruzipain (Trypanosoma cruzi), P25779. purified cruzain, Z-FR-AMC fluorescence, 0.01% Triton. Potency, µM, for the others: max response, negative = inhibition, hits mostly inhibitors. 0.43% of 200,000 active;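 further: plate controls were neutral wells for no effect and buffer without enzyme for full effect; nearly all actives have a fitted effect of over 40% in size; top concentration of the series not given in the record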
# Target sequence (P25779 123-467 limits assumed): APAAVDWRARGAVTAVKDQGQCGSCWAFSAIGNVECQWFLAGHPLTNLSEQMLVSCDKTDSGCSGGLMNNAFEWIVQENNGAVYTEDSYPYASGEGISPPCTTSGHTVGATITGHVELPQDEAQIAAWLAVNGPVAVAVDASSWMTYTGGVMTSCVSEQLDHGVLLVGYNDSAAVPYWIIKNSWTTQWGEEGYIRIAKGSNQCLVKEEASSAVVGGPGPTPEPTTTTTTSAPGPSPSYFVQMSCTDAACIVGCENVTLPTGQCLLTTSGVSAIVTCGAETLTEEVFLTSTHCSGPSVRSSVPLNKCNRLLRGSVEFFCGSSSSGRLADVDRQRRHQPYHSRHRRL
#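 In this qHTS format, compounds are incubated with 1.5 nM cruzain for 15 min at room temperature before 2 uM Z-FR-AMC is added. Release of AMC is followed at 360/450 nm, and progress is taken as the 60 s fluorescence difference.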
# Lassa entry inh: qHTS for Inhibitors of binding or entry into cells for Lassa Virus. Lassa virus pseudotype entry inhibition, cell reporter; control for the full effect not named in the record. Potency, µM (series often up to 37.9 µM), for inactives: at the top dose activity change, negative = inhibition, actives largely listed as inhibitors. 1.2% of 300,000 active; active means well fitted inhibition curve with a large enough effect; inconclusive means small, poorly fitted or top-dose-only effect, or effect the other way; inactive means flat fitted curve, though single readings scatter; tested in HEK293 cells; further: on the % scale 0 is the no-effect control and ±100 the full control effect; nearly all actives have a fitted effect of over 50% in size; luciferase read-out
# Cruzain inh noDet: qHTS Assay for Promiscuous and Specific Inhibitors of Cruzain (without detergent); Cruzipain (Trypanosoma cruzi), P25779; purified cruzain, Z-FR-AMC fluorescence, no detergent; Potency, µM, for the others: max response, negative = inhibition, actives largely listed as inhibitors; 2.3% of 200,000 active;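 further: plate controls were enzyme without inhibitor for no effect and buffer without enzyme for full effect; nearly all actives have a fitted effect of over 40% in size; top concentration of the series not given in the record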
#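 Detergent-free condition (0.00005% Triton X-100) in acetate buffer pH 5.5 with DTT. 1.5 nM enzyme and compound were pre-mixed 15 min, then 2 uM Z-FR-AMC substrate added; reaction progress from fluorescence change between first and third reads (60 s).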
# StopGo reporter: High Throughput Screening for Foot and Mouth Disease Virus Antivirals; human cells with a luciferase reporter of 2A StopGo recoding; control for the full effect not named in the record; Potency, µM (series often up to 57.9 µM), for inactives: top-dose signal change, negative = less light; 1.2% of 410,000 active; AID 1159524, 2015; active = well fitted falling curve with a large enough effect; inconclusive = small, poorly fitted or top-dose-only effect; inactive = no such curve, though single readings can be large or run the other way; tested in HEK293T cells; further: on the % scale 0 is the no-effect control and ±100 the full control effect; nearly all actives have a fitted effect of over 45% in size; luciferase light after 4 h
# RE007 growth inh: qHTS Assay for Inhibitors of the HIV-1 protein Vpr; S. pombe RE007 Vpr strain, BacTiter-Glo ATP luminescence, 24 h; control for the full effect not named in the record; Potency, µM (highest dose often 92.2 µM), inactives show at the highest dose activity change, negative = less growth; 0.21% of 360,000 active; AID 651644, 2012; active = well fitted falling curve with a large enough effect; inconclusive = small, poorly fitted or top-dose-only effect; inactive = no such curve, though single readings can be large or run the other way;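 further: on the % scale 0 is the no-effect control and ±100 the full control effect; nearly all actives have a fitted effect of over 50% in size; the assay follows cell death caused by Vpr and the record does not say whether a fall means rescue or toxicity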
#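 Fission yeast strain RE007, carrying one chromosomally integrated HIV-1 vpr copy, was seeded at OD 0.01 in PMG+AL medium with 23 nL pinned compound. After 24 h at 30 °C and 99% humidity, viability was read by BacTiter-Glo luminescence.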
# Marburg entry inh: qHTS for inhibitors of binding or entry into cells for Marburg Virus; Marburg virus pseudotyped entry inhibition, cell reporter; control for the full effect not named in the record; about a third of the inactives were read at about 46 µM; Potency, µM (titrated, usually from 37.8 µM), without a hit: top-dose activity change, negative = inhibition, hits mostly inhibitors; 1.8% of 300,000 active; AID 540276, 2011; active = well fitted inhibition curve with a large enough effect; inconclusive = small, poorly fitted or top-dose-only effect, or effect the other way; inactive = flat fitted curve, though single readings scatter; tested in HEK293 cells; about a fifth of its hits are not listed in these tables; further: on the % scale 0 is the no-effect control and ±100 the full control effect; luciferase read-out
# SARS PLP yeast: qHTS of Yeast-based Assay for SARS-CoV PLP; S. cerevisiae expressing SARS-CoV PLpro, growth rescue; control for the full effect not named in the record; 0.19% of 330,000 active; AID 485353, 2010; Potency, µM (top dose mostly 32.9 µM), without a hit: at the highest dose activity, positive = growth rescue; active means well fitted rising curve with a large enough effect; inconclusive means small, poorly fitted or top-dose-only effect; inactive means no such curve, though single readings can be large or run the other way; further: 0% is about no effect; nearly all actives have a fitted effect of over 55% in size; growth read by luminescence after 48 h
# An asterisk follows results filed as active; ? = inconclusive; nt = not tested or not shown; & = joins results of further samples; [ ] = another dose, or the depositor's remark. Unless noted, the call rests on the fitted dose curve; in most records, active means well fitted curve in the direction sought with a large enough effect; inconclusive means small, poorly fitted or top-dose-only effect, or another doubt; inactive means no such curve, though single readings can be large; an effect the other way counts as inactive or inconclusive. Potency means the concentration at half of the fitted maximal effect.
# A first look, 6 compounds:
SMILES,NS1 function inh,Cruzain inh Det,Lassa entry inh,Cruzain inh noDet,StopGo reporter,RE007 growth inh,Marburg entry inh,SARS PLP yeast
CC(=O)Nc1c(-c2ccccc2)nc2ncccn12,-2%,-4.8%,nt,-6%,-13%,3%,nt,1%
COc1ccc(-c2csc(N(CCCN(C)C)C(=O)c3ccccc3Cl)n2)cc1,nt,nt,?,nt,20%,-15%,5.6µM*,nt
COc1ccccc1/C=N/NC(=O)c1ccc(C)nc1,10%,nt,nt,nt,4%,-11%,nt,0%
Cc1[nH]n(-c2ccc([N+](=O)[O-])cc2)c(=O)c1C=NCCc1ccc(S(N)(=O)=O)cc1,nt,nt,-10%,nt,-3%,?,14%[46.1 µM],-2%
O=C(NCc1ccco1)C(=O)NCC1OCCN1S(=O)(=O)c1ccc(Cl)cc1 (stereo unspecified),-2%,-0.2%,-1%,4%,0%,1%,12%,9%
Cn1c(=O)c2[nH]c(=S)n(Cc3ccccc3)c2n(C)c1=O,nt,nt,18%[46.1 µM],nt,-11%,12%,-4%[46.1 µM],nt

# This part in full, previewed entries included:
SMILES,NS1 function inh,Cruzain inh Det,Lassa entry inh,Cruzain inh noDet,StopGo reporter,RE007 growth inh,Marburg entry inh,SARS PLP yeast
CC(=O)Nc1c(-c2ccccc2)nc2ncccn12,-2%,-4.8%,nt,-6%,-13%,3%,nt,1%
COc1ccc(-c2csc(N(CCCN(C)C)C(=O)c3ccccc3Cl)n2)cc1,nt,nt,?,nt,20%,-15%,5.6µM*,nt
COc1ccccc1/C=N/NC(=O)c1ccc(C)nc1,10%,nt,nt,nt,4%,-11%,nt,0%
Cc1[nH]n(-c2ccc([N+](=O)[O-])cc2)c(=O)c1C=NCCc1ccc(S(N)(=O)=O)cc1,nt,nt,-10%,nt,-3%,?,14%[46.1 µM],-2%
O=C(NCc1ccco1)C(=O)NCC1OCCN1S(=O)(=O)c1ccc(Cl)cc1 (stereo unspecified),-2%,-0.2%,-1%,4%,0%,1%,12%,9%
Cn1c(=O)c2[nH]c(=S)n(Cc3ccccc3)c2n(C)c1=O,nt,nt,18%[46.1 µM],nt,-11%,12%,-4%[46.1 µM],nt
O=C(COC(=O)c1ccc(-c2ccc([N+](=O)[O-])cc2)o1)NC(=O)NC1CCCCC1,5%,-13%,11%,?,-20%,nt,6%,-28%
CC(C)CCNC(=O)Nc1ccc2c(c1)N(C)C(=O)c1ccccc1S2,nt,-3.6%,?,12%,3%,nt,2%[46.1 µM],nt
O=C(CCN1C(=O)C2CCCCC2C1=O)N1CCN(S(=O)(=O)c2c(F)cccc2F)CC1 (stereo unspecified),nt,nt,2%,nt,-15%,-4%,16%,1%
CCC[C@@H]1C[C@@H](C(=O)N[C@@H](C2O[C@H](SC)[C@H](O)[C@@H](O)[C@H]2O)[C@H](C)Cl)N(C)C1 (stereo partly specified),7%,nt,nt,nt,-21%,-7%,nt,-2%
OC[C@H]1O[C@@H](n2cnc3c(NCc4ccco4)ncnc32)[C@H](O)[C@@H]1O,nt,-1.8%&5.3%,nt,-4%&-9%,-24%&-5%,0%[18.4 µM],nt,nt
O=C(O)c1c[nH]c2ccc(S(=O)(=O)N3CCOCC3)cc12,-9%,3.3%,7%,1%,9%,4%,?,2%
Cc1ccc(NC(=O)N(Cc2c[nH]c3ccccc23)C2CCCCCC2)cc1C,nt,-14%,2.5µM*,4%,19%,nt,?,nt
Cc1ccc(Cl)c(OC(=O)c2nn(C(C)C)c(=O)c3ccccc23)c1,-7%,-10%,nt,-6%,?,-17%,nt,-4%
CCc1ccc([C@@H]2C[C@H]3CN(Cc4ccccc4OC)C(=O)[C@]34CCCN24)cc1,-1%,nt,-20%[46.1 µM],nt,11%,-13%,?,-1%
COc1ccccc1CN1CCNC(=O)C1CC(=O)NCc1c(C)n[nH]c1C (stereo unspecified),0%,nt,8%,nt,22%,26%,-7%[46.1 µM],-1%
CC(C)(C)c1ccc(NC(=O)c2cc[n+]([O-])cc2)cc1,1%,nt,-4%,nt,17%,3%,-3%[46.1 µM],0%
COC(=O)c1nc2n(n1)C(c1ccc(OC)c(OC)c1OC)C1=C(CCCC1=O)N2 (stereo unspecified),1%,-0.7%,-1%,-6%,6%,4%,18%,-4%
Cc1cc(=O)oc2cc(OC(C)C(=O)NCC3CCCO3)ccc12 (stereo unspecified),0%,nt,-2%,nt,-10%,17%,-4%,0%
CCOC(=O)N1CCN(C2=Nc3cccc4cccc2c34)CC1,-7%,-8.1%,3%,-20%,nt,-5%,-13%,3%
CC(CCc1ccccc1)NC(=O)C1CCN(C(=O)c2sccc2-n2cccc2)CC1 (stereo unspecified),-26%,-0.4%,nt,2%,-28%,-5%,0%,2%
COc1ccc(-c2cn[nH]c2-c2ccc(O)cc2O)cc1OC,-3%,nt,-18%[46.1 µM],nt,-29%,2%,-12%[46.1 µM],0%
O=C(Cn1cc2c(n1)CCCC2)NCCc1ccccc1,0%,-1.5%,nt,-3%,-1%,9%,nt,15%
COc1ccc(NC2CCCN(C(=O)CCCN3CCCCC3=O)C2)cc1 (stereo unspecified),1%,nt,3%[46.1 µM],nt,0%,-4%,-7%[46.1 µM],-4%
CC1(C)OC(=O)C(C(c2ccccc2)C(C#N)C(N)=O)=C(O)O1 (stereo unspecified),7%,0.7%,26%,-3%,7%,0%,-1%,-6%
Cc1cccc(C(=O)N2CCc3cc(CNC(=O)Cc4ccc(F)cc4)ccc32)c1,nt,1.8%,-13%[46.1 µM],-6%,?,nt,nt,nt
Cc1ccccc1CN1C[C@@H]2C[C@@H](c3cn[nH]c3-c3ccccc3)N3CCC[C@@]23C1=O,-3%,nt,?,nt,10%,-11%,?,1%
N#Cc1cc(NCC2CCCO2)c([N+](=O)[O-])cc1C#N (stereo unspecified),-11%,-5.2%,-12%,-6%,?,-12%,-9%,-1%
Cc1ccc(C)c(S(=O)(=O)NCc2ccc(C(=O)N3CCN(c4ccccc4)CC3)cc2)c1,24%,nt,13%,nt,?,10%,?,?
Cc1nc(N2CCN(C(c3ccccc3)c3ccccc3)CC2)nc2c1C(=O)CCC2,1%,-5.6%,nt,5%,nt,nt,5%,0%
O=C(/C=C/c1ccccc1Cl)Nc1ccccc1,-63%,nt,?,nt,-16%,?,10µM*,-6%
Cc1ccc(C(=O)Nc2ccc3c(c2)OCO3)o1,-1%,3.8%,-9%,-4%,40%[activator],?,-12%,-10%
CSc1ccc(/C=N/NC(=O)CN2CCN(Cc3ccccc3Cl)CC2)cc1,-1%,-5.5%,-25%,-12%,-24%,0%,?,-6%
Cc1cccc(N2CCN(C(=O)CS(=O)(=O)c3cccc4nsnc34)CC2C)c1 (stereo unspecified),nt,-2.4%,-2%[46.1 µM],1%,2%,nt,nt,nt
Cc1cc(NC(=O)C2C3C(=O)N(Cc4ccc(Cl)cc4)C(C(=O)NC4CCCCC4)C34C=CC2(C)O4)no1 (stereo unspecified),26%,-2.5%,-6%,-1%,-4%,-9%,3%,?
COCCCNC(=O)c1c(N)n(-c2ccccc2)c2nc3ccccc3nc12,-7%,nt,-16%,nt,-23%,1%,?,-1%
CCCc1nc2ccccc2c(=O)n1N,3%,0.3%,-17%,-1%,-4%,4%,6%[46.1 µM],11%
CCCCOC(=O)Nc1ccc(S(=O)(=O)Nc2ncccn2)cc1,0%,nt,4%,nt,-11%,6%,?,0%
COc1ccc(NC(=O)CCCn2c(=O)c3sccc3n(Cc3ccccc3)c2=O)cc1,?,-1.4%,-16%,-8%,?,22%,6%,?
Cc1nnc(SCC(=O)NC2CCCCCC2)n1C(C)C,18%,nt,nt,nt,-22%,17%,nt,-4%
CCc1cccc(C)c1NC(=O)CN1CCCN(Cc2ccc(C)cc2)S1(=O)=O,nt,4.1%,7%[46.1 µM],9%,-18%,nt,nt,nt
CC(NC(=O)CN(C)Cc1cccc(Cl)c1)c1ccccc1 (stereo unspecified),-3%,nt,-9%,nt,8%,-1%,-19%[46.1 µM],-2%
O=C(c1ccco1)N1CCN(c2cc(=O)n(-c3ccc(Cl)cc3)c(=O)[nH]2)CC1,21%,-2.1%,nt,7%,-11%,-1%,nt,5%
CCN(CC)CCn1c2ccccc2c2cnc(N=CN(C)C)c(C#N)c21,-9%,-9.0%,?,-13%,-9%,3%,?,3%
CCOC(=O)C1=C(C)N=c2s/c(=C\c3ccc(OCC(=O)O)cc3)c(=O)n2C1c1ccc(OC(C)C)cc1 (stereo unspecified),?,?,2%,?,40µM*,nt,?,-9%
CN(Cc1ccccc1)C(=O)CCS(=O)(=O)c1cc(Br)cc2c1N(C(=O)C1CC1)CC2,nt,-1.8%,1%[46.1 µM],7%,26%,nt,-2%[46.1 µM],nt
COc1ccccc1N(C)S(=O)(=O)c1ccc(Cl)c(C(=O)Nc2ccncc2)c1,nt,nt,-9%,nt,?,-7%,?,nt
COc1ccccc1-c1noc(-c2ccc(N3CCOCC3)c([N+](=O)[O-])c2)n1,nt,-5.3%,-27%[46.1 µM],-4%,28%,nt,-19%[46.1 µM],nt
COc1cc(CNC(=O)C2CCC(=O)N(C3CCCCCC3)C2)cc(OC)c1 (stereo unspecified),0%,nt,10%[46.1 µM],nt,5%,2%,-1%[46.1 µM],-1%
CCn1c(=O)c(C(=O)CN(C)Cc2ccc(F)cc2)c(N)n(Cc2ccccc2)c1=O,nt,nt,-34%,nt,-28%,-15%,10µM*,1%

# The order is random. About 4.7% of those tested had a hit in this group.
